# Screening data (PubChem BioAssay)
# E coli growth: blocks Escherichia coli growth; OD600, 23 h; hits give low values; OD600 absorbance (no concentration beside the values); 330,000 compounds, 0.21% hits;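 active = OD600 absorbance below the run mean of sample wells minus 3.6 SD, in any replicate, cut at about 0.56 in these data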;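 note: stock transfer was 300 nL into about 60 µL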
# FGF22 binding: shifts melting point of recombinant human FGF22 | calls only at 9.99 µM | recombinant FGF22 thermal shift, SYPRO orange fluorescence; percent of sucrose octasulfate shift, DMSO zero | Q9HCT0 | 340,000 compounds, 1.5% hits;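 active = melting point raised past a set limit in the mean and every replicate; three in four hits are not shown here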
# Target sequence (Q9HCT0 whole entry, looked up): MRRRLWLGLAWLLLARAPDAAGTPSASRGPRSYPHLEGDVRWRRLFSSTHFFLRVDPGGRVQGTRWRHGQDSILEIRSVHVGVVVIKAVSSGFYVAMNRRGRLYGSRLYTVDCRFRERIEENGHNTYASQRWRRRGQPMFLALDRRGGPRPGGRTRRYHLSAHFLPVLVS
# B2AR ag: human beta-2 adrenergic receptor agonism by FAP; Am2.2-beta2AR cells, FAP receptor internalization, flow cytometry; reference of the scale not given here; response, % (concentration not given with the values); 340,000 compounds, 0.43% hits;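 active = response above a set limit, near 3 SD of response in nonfluorescent compounds, cut at about 42% in these data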;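 note: stock transfer was 100 nL into about 11 µL; a reference agonist was the positive control; negative values mostly stem from fluorescent compounds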
# Target sequence (P07550 whole entry, looked up): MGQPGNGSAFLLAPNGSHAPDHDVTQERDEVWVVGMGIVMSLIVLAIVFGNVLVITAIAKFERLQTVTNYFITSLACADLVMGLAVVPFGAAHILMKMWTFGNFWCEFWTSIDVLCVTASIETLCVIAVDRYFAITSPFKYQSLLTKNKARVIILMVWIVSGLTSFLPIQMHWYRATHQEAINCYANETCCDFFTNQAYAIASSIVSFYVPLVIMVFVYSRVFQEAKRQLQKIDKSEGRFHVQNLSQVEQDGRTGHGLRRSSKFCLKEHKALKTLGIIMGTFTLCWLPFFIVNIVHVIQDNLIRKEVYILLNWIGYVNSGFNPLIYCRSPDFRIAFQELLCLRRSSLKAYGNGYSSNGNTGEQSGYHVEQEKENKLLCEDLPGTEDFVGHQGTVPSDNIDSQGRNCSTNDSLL
# UCH37 inh: human UCH37 deubiquitinating enzyme inhibition; Q9Y5K5; purified proteasome/UCH37, Ub-AMC cleavage fluorescence; inhibition, % (test concentration not listed); 330,000 compounds, 0.33% hits; AID 588478;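 active = mean of two replicates above 20%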;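 note: 0% = compound-free wells with enzyme and 100% = wells lacking proteasome; stock transfer was 100 nL into about 20 µL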
# Target sequence (Q9Y5K5 whole entry, looked up): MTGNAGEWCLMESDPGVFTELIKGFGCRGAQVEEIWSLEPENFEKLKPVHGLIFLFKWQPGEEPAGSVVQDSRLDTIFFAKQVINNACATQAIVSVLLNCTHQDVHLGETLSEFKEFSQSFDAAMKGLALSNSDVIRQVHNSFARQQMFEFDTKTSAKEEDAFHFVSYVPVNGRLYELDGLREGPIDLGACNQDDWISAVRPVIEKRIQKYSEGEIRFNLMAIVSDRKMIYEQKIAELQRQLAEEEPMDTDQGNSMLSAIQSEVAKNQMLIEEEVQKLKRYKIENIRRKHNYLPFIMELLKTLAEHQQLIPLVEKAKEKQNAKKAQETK
#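 Assay system: Proteasome-bound UCH37. Buffer or medium: pH 7.4 Tris-HCl (50 mM) with ovalbumin, ATP-MgCl2, DTT. Incubation: 30 min preincubation with enzyme, 25 min cleavage at room temperature. Measured by: fluorescence, ex 355 nm, em 460 nm. Read-out basis: percent inhibition. Control set: wells without proteasome as full block, compound-free enzyme plus substrate as uninhibited.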
# LANA-H2B inh: blocks KSHV LANA binding to histone H2A/H2B | Q9QR71 | cell-free LANA-H2A/H2B peptide, fluorescence polarization | inhibition, % (no concentration beside the values) | 320,000 compounds, 0.6% hits | AID 2629; in the data active = inhibition mostly above about 10%, no sharp cut-off; inactive = mostly below about 6.7%;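 note: stock transfer was 7.5 nL into about 10 µL; 0% = median of vehicle wells and 100% = median of positive control wells; one replicate is shown; the record names a cut of 25% in any replicate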
# ALR H2O2 inh: human ALR oxidase inhibition via reduced H2O2; P55789; purified ALR, DTT oxidation, H2O2 HRP-luminol luminescence; inhibition, % (no concentration beside the values); 290,000 compounds, 3.8% hits; AID 485317;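 active = mean and each replicate at 75% or more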;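 note: stock transfer was 7.5 nL into about 7.5 µL; 0% = neutral wells and 100% = wells with inactivated enzyme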
# HNF4A DNA FP: change in binding of human HNF4 alpha to DNA; P41235; HNF4a-FITC DNA binding, fluorescence polarization, 1 h; activity change, % at 10 µM; 360,000 compounds, 0.3% hits; AID 1224865; in the data active = activity change above about 30%, passing the limit was not always enough;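 note: controls were the assay level and a saturating level of protein; the project sought stronger binding though the title names inhibitors; some compounds called inactive have numbers as strong as hits; positive values seem to mean higher polarization but the record does not say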
# The depositor's hits bear a star; i = inactive; / = not tested or not shown. Some of the compounds tested; the hit share may differ from the screen's.
SMILES,E coli growth,FGF22 binding,B2AR ag,UCH37 inh,LANA-H2B inh,ALR H2O2 inh,HNF4A DNA FP
C=CCS(=O)(=O)c1cccc2cccnc12,0.71,i,1,-1.2,0.3,-19,2.7
C/C(=N\NC(=O)C(c1ccccc1)c1ccccc1)c1ccc(O)cc1,/,i,-16,/,-1.8,90*,-3.0
CN(C)C(=O)N1CCNCC1,0.62,i,-7,5.4,-1.2,0,-2.4
CN(C)c1ccc(C(=O)OCC(=O)NCCNC(=O)COC(=O)c2ccc(N(C)C)cc2)cc1,0.74,i,0,-1.0,-0.7,-3,2.7
CCOC(=O)c1ccc[n+](C(C)C(=O)c2ccc(-c3ccccc3)cc2)c1 (stereo unspecified),0.71,/,-1,4.0,1.3,-3,-2.5
CCCc1ccc(C(=O)NNC(=O)c2ccc(Br)cc2)cc1,0.71,/,-6,2.6,0.9,2,-2.9
CCOC(=O)CNC(=O)CSc1ccc(-c2nc3ccccc3[nH]2)cn1,/,/,4,/,-0.6,-5,9.9
O=C(NCc1ccccc1)C(c1ccc(O)cc1)N(C(=O)Cn1nnc(-c2cccs2)n1)c1ccc2c(c1)OCCO2 (stereo unspecified),0.74,/,3,2.3,-8.2,-1,-1.5
CC1CCCC(NC(=O)C2COc3ccccc3O2)C1C (stereo unspecified),0.67,i,0,4.7,-1.9,-7,-0.3
C/C(=N\NC(=O)c1ccccc1-n1cccc1)C1CC1,/,/,-2,/,7.6,-1,-1.4
CCOc1ccccc1NC(=O)CSc1nnc(-c2ccncc2)o1,0.67,i,-7,4.4,4.2,-61,1.8
COc1ccc(NS(=O)(=O)Cc2ccccc2Cl)cn1,0.67,/,2,-0.9,1.3,/,3.3
CC1CN(C(=O)COC(=O)Cc2c(F)cccc2Cl)CC(C)O1 (stereo unspecified),0.64,i,2,-0.1,-7.4,/,-0.4
CCOC(=O)C1(CCc2ccccc2)CCN(C(=O)C2CCCO2)CC1 (stereo unspecified),0.67,i,-1,5.2,-0.6,-3,-3.7
Cc1ccc(CNC(=O)C2CCN(C(=O)c3cccc(Cl)c3)CC2)cc1,0.68,/,0,0.1,0.9,-3,3.5
O=C(NCC(c1ccco1)N1CCc2ccccc21)c1ccccc1Cl (stereo unspecified),0.69,i,3,1.6,-1.8,98*,-3.5
COc1cccc(CNC(=O)Cn2ncc3c(=O)oc4ccccc4c32)c1,0.74,i,-10,2.5,-8.0,4,-0.9
CCC(C)/C(C)=N/NC(=O)C1COc2ccccc2O1 (stereo unspecified),/,/,-10,/,3.4,-15,-2.5
CC(=O)Nc1cc2c3c(c1)CC(=O)N3CCC2,0.72,i,0,0.8,0.7,-11,1.5
COc1ccc(N2CCN(S(=O)(=O)c3ccc(-n4cnnn4)c(C)c3)CC2)cc1,0.68,i,4,5.3,0.4,-7,-2.7

# Of the compounds above, these contain an aryl thioether with sulfur outside any ring:
SMILES,E coli growth,FGF22 binding,B2AR ag,UCH37 inh,LANA-H2B inh,ALR H2O2 inh,HNF4A DNA FP
CCOC(=O)CNC(=O)CSc1ccc(-c2nc3ccccc3[nH]2)cn1,/,/,4,/,-0.6,-5,9.9
CCOc1ccccc1NC(=O)CSc1nnc(-c2ccncc2)o1,0.67,i,-7,4.4,4.2,-61,1.8

# Next part
SMILES,E coli growth,FGF22 binding,B2AR ag,UCH37 inh,LANA-H2B inh,ALR H2O2 inh,HNF4A DNA FP
Cc1c(C#N)c(O)[nH]c(=O)c1N=Nc1ccc(Cl)c(C(=O)O)c1,0.68,i,-7,6.7,2.3,1,4.6
CCOP(=O)(OCC)c1nc(-c2ccc(F)cc2)oc1NCc1ccccc1,0.69,i,4,-43,-2.5,23,3.0
O=C(Nc1ccncc1)C1CCN(S(=O)(=O)c2cccs2)CC1,0.62,/,2,2.2,-2.4,-5,1.9
COc1ccc2nc(NCc3ccc(OC)c(OC)c3OC)sc2c1,/,i,-5,/,/,/,-0.3
CCOC(=O)N1CCN(C(=O)CSc2nc(=O)n3ccccc3n2)CC1,0.68,i,3,4.7,-0.3,/,0.6
COc1ccc(C(=O)C[n+]2cccc(C)c2C)cc1[N+](=O)[O-],0.73,i,-5,0.3,-0.8,13,-3.0
COc1cccc(NC(=O)C2CCCN(S(=O)(=O)c3cccc4nsnc34)C2)c1 (stereo unspecified),0.7,/,6,6.3,1.5,-2,-3.9
CN(C)S(=O)(=O)c1cccc(-c2cn3ccccc3n2)c1,0.75,/,11,-1.0,-2.4,99*,3.9
CCC(=O)Nc1ccc(S(=O)(=O)Nc2ccccn2)cc1,0.67,i,-2,0.9,-3.7,-1,-0.2
O=C(CSc1ccc2c(c1)OCCO2)Nc1ccc2c(c1)OCO2,0.77,/,-1,2.3,3.0,60,-0.7
N#CC1(NC(=O)COC(=O)c2nc(Cl)c(Cl)c(N)c2Cl)CCCCC1,0.72,i,10,-0.8,14*,3,4.1
Cc1ccccc1S(=O)(=O)N1C[C@H]2CON(C)[C@H]2C[C@H]1c1cccc(-c2ccc(C#N)cc2)c1,/,i,1,/,/,/,0.3
COc1cccc(C(=O)NNC(=O)C(=O)Nc2ccc(C)c(Cl)c2)c1,0.7,i,0,3.2,7.7,/,4.0
COc1ccc(-c2nc3ccccc3s2)cc1NC(C)=O,0.65,i,-3,-221,5.7,-8,1.4
Cc1onc(-c2ccccc2)c1C(=O)Nc1ccc(-c2nnc3n2CCCCC3)cc1,0.75,/,-2,1.6,-2.5,-39,3.1
COc1cccc(N/C(SC)=C(/C#N)C(=O)NCc2cccs2)c1,0.66,i,-5,4.1,-5.3,19,1.4
Cc1ccc(S(=O)(=O)N[C@@H](Cc2ccccc2)C(=O)N2CCC(C(=O)N[C@@H](CC(C)C)C(=O)O)CC2)cc1,0.64,i,4,3.1,-1.8,-4,-1.6
COC(=O)c1sccc1NC(=O)CSc1ccccc1NS(=O)(=O)c1cc(Cl)ccc1Cl,0.79,/,2,0.4,1.4,/,3.0
CN(C)S(=O)(=O)c1ccc(Cl)c(C(=O)NCCNC(=O)c2cc(S(=O)(=O)N(C)C)ccc2Cl)c1,0.67,i,-5,4.1,1.8,7,0.9
Cc1ccccc1NS(=O)(=O)c1cc(C(=O)N2CCc3ccccc3C2)ccc1C,0.65,/,-6,-0.1,0.6,-4,-5.9
CCOC(=O)c1c(NC(=O)Cn2cnc3scc(-c4ccc(C)cc4)c3c2=O)sc(C)c1C,0.69,/,-6,-5.2,-1.5,1,5.0
COc1ccc(-c2nc3n(n2)C(c2ccccc2)C2=C(CCCC2=O)N3)cc1OC (stereo unspecified),0.69,/,-18,-2.0,2.0,97*,-0.6
O=C(OCn1ncc(Cl)c(Cl)c1=O)c1cccc(C(F)(F)F)c1,0.67,/,42,1.9,-1.9,97*,-0.6
CC1(C(=O)OCC(=O)Nc2nnc(-c3ccccc3)o2)CC1(Cl)Cl (stereo unspecified),0.65,i,4,5.4,3.7,42,4.5
COc1cccc(Oc2cn[nH]c2-c2ccc(OCC(=O)NN)cc2O)c1,0.68,i,4,2.0,-3.2,-7,0.1
Cc1nn(Cc2ccc(Cl)cc2)c(C)c1NC(=O)C1CC=CCC1C(=O)O (stereo unspecified),0.77,/,-3,-4.4,2.0,-1,0.8
COc1ccc(Nc2nc(N)nc(CN3CCc4ccccc4C3)n2)cc1,0.72,i,7,6.1,1.2,-7,-2.7
CC(=O)CC[C@@H](C)O[C@@H]1OC(C)[C@H](O)CC1O (stereo partly specified),/,i,0,0.2,-1.4,2,-3.0
COc1ccc(OC(=O)c2cc3cc(Cl)ccc3oc2=O)cc1,0.7,i,-3,-0.8,-0.1,1,-3.3
C=CCOn1c(=O)c(-c2ccc(F)cc2)[n+]([O-])c2ccccc21,0.66,i,5,-12,/,/,-1.8
COc1cc(OC)cc(-c2c(C#Cc3ccsc3)c3cc(-c4ccc(OC)c(F)c4)ccc3n2C)c1,0.74,i,5,-44,-0.7,-7,15
Cc1ccc(NC(=O)COc2coc(CN3CCN(Cc4ccccc4)CC3)cc2=O)cc1,0.66,i,0,2.2,-1.9,/,-6.7
O=C(O)Cc1ccc(NC(=S)NCc2ccco2)cc1,0.72,/,-4,1.2,-1.7,-3,-2.1
CCN(CC)c1ccc(NC(=O)CCNS(=O)(=O)c2ccc3c(c2)CCC(=O)N3)c(C)c1,0.7,i,29,0.5,-4.0,99*,1.2
CC(C)[C@H](NC(=O)C1(c2ccccc2)CCN(C(=O)OC(C)(C)C)CC1)C(=O)O,0.68,/,8,3.0,4.0,-7,1.1
COc1ccccc1C(=O)OCC(=O)NC(=O)NC1CCCC1,0.66,i,-1,2.6,3.6,7,0.7
O=C(CSc1nnc2ccc(-c3ccc(F)cc3)nn12)N1CCOCC1,0.72,/,-7,-13,2.1,-1,-1.3
CCN(CC)S(=O)(=O)c1ccccc1/C=N\O,/,/,6,/,4.2,-6,1.1
CC(NC(=O)COC(=O)CCc1ccccc1)c1ccccc1 (stereo unspecified),0.66,/,-19,5.3,-1.5,-13,-0.3
Cc1cc(C)n(C(=O)CNC(=O)c2ccc(Cl)cc2Cl)n1,0.65,i,-4,-0.4,8.1,-3,0.6
O=C(/C=C/c1cccc([N+](=O)[O-])c1)NCCSCc1ccc(Cl)cc1,0.65,i,4,0.0,2.1,-2,2.7
CN(C)c1ccc(/C=N/NC(=O)C2CC2c2ccccc2)cc1 (stereo unspecified),/,i,2,/,-2.7,11,-4.7
C(=N/N1CCN(c2ccccc2)CC1)/c1ccncc1,/,i,10,/,-1.8,97*,7.5

# Taken from the results shown (16 entries):
SMILES,E coli growth,FGF22 binding,B2AR ag,UCH37 inh,LANA-H2B inh,ALR H2O2 inh,HNF4A DNA FP
CCOC(=O)c1c(NC(=O)Cn2cnc3scc(-c4ccc(C)cc4)c3c2=O)sc(C)c1C,0.69,/,-6,-5.2,-1.5,1,5.0
COc1ccc(-c2nc3n(n2)C(c2ccccc2)C2=C(CCCC2=O)N3)cc1OC (stereo unspecified),0.69,/,-18,-2.0,2.0,97*,-0.6
O=C(OCn1ncc(Cl)c(Cl)c1=O)c1cccc(C(F)(F)F)c1,0.67,/,42,1.9,-1.9,97*,-0.6
CC1(C(=O)OCC(=O)Nc2nnc(-c3ccccc3)o2)CC1(Cl)Cl (stereo unspecified),0.65,i,4,5.4,3.7,42,4.5
COc1cccc(Oc2cn[nH]c2-c2ccc(OCC(=O)NN)cc2O)c1,0.68,i,4,2.0,-3.2,-7,0.1
Cc1nn(Cc2ccc(Cl)cc2)c(C)c1NC(=O)C1CC=CCC1C(=O)O (stereo unspecified),0.77,/,-3,-4.4,2.0,-1,0.8
COc1ccc(Nc2nc(N)nc(CN3CCc4ccccc4C3)n2)cc1,0.72,i,7,6.1,1.2,-7,-2.7
CC(=O)CC[C@@H](C)O[C@@H]1OC(C)[C@H](O)CC1O (stereo partly specified),/,i,0,0.2,-1.4,2,-3.0
COc1ccc(OC(=O)c2cc3cc(Cl)ccc3oc2=O)cc1,0.7,i,-3,-0.8,-0.1,1,-3.3
C=CCOn1c(=O)c(-c2ccc(F)cc2)[n+]([O-])c2ccccc21,0.66,i,5,-12,/,/,-1.8
COc1cc(OC)cc(-c2c(C#Cc3ccsc3)c3cc(-c4ccc(OC)c(F)c4)ccc3n2C)c1,0.74,i,5,-44,-0.7,-7,15
Cc1ccc(NC(=O)COc2coc(CN3CCN(Cc4ccccc4)CC3)cc2=O)cc1,0.66,i,0,2.2,-1.9,/,-6.7
O=C(O)Cc1ccc(NC(=S)NCc2ccco2)cc1,0.72,/,-4,1.2,-1.7,-3,-2.1
CCN(CC)c1ccc(NC(=O)CCNS(=O)(=O)c2ccc3c(c2)CCC(=O)N3)c(C)c1,0.7,i,29,0.5,-4.0,99*,1.2
CC(C)[C@H](NC(=O)C1(c2ccccc2)CCN(C(=O)OC(C)(C)C)CC1)C(=O)O,0.68,/,8,3.0,4.0,-7,1.1
COc1ccccc1C(=O)OCC(=O)NC(=O)NC1CCCC1,0.66,i,-1,2.6,3.6,7,0.7
